# Screens deposited in PubChem BioAssay by several laboratories.
# RanGTP-Impb inh: inhibitors of RanGTP-importin-beta interaction, primary screen, biochemical, FRET, CFP-Ran, YFP-importin-beta, homogeneous. Ran GTPase (GTP-bound) - importin-beta complex. AID 2216, 2009. hit rate 1.1% among 300,000. inhibition, % (no concentration beside the values). cell-free CFP-Ran/YFP-importin-beta FRET ratio;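 active = most replicates above 15%; inconclusive = exactly half above 15%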;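 note: 0% = DMSO wells and 100% = Ran loaded with GDP instead of GTP; wells of about 40 µL received 100 nL stock; the first replicate is given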
# Calb FLC: C. albicans growth inhibition with fluconazole, primary screen, CaCi-2 strain, Alamar Blue fluorescence | C. albicans CaCi-2 (fluconazole-resistant clinical isolate) + fluconazole, 48 h | growth inhibition, % (test concentration not listed) | hit rate 0.57% among 300,000;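 active = most replicates above 75%; inconclusive = exactly half above 75%; inactive = most below 75%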;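 note: all wells also contain fluconazole at 8 µg/ml as a sub-toxic cotreatment; 0% = median of DMSO wells and 100% = median of geldanamycin control wells; wells of about 8 µL received 7.5 nL stock; the first replicate is given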
# A1 inh: caspase 3/7 activation in MEF A1-2A-BIM cells, primary screen, A1 inhibitor project, cell-based, luminescence, HTS | Caspase-Glo 3/7 luminescence, 3 h; percent of clofoctol response, vehicle zero | caspase activation, % (test concentration not listed) | hit rate 0.066% among 330,000 | AID 2462, 2010;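 active = over half of replicate activation scores above 10%, or exactly half above 10 with the replicate mean above 10; inconclusive = replicate mean below 10 yet half the replicates above 10; inactive = over half of replicates below 10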;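 note: wells of about 30 µL received 50 nL stock; many hits fall short of the cut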
# Beta cell apopt: inhibitors of cytokine-induced beta cell apoptosis, primary screen, luminescence | INS-1E cytokine-induced death, ATP luminescence, 48 h; percent of positive-control rescue, neutral wells zero | protection from apoptosis, % (concentration not given with the values) | hit rate 0.8% among 300,000 | AID 435005, 2010;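 active = all replicates at 75% or more, or half of them and the mean; inconclusive = half reach 75% but not the mean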;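 note: 0% = cytokine-treated negative control wells and 100% = positive control rescue; higher means more ATP so stronger rescue from cytokine killing; wells of about 40 µL received 100 nL stock; the first replicate is given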
# T cruzi inh: inhibitors of intracellular T. cruzi growth, primary screen, luminescence, NIH3T3 host cells; T. cruzi beta-gal in NIH3T3, 90 h; AID 1885, 2009; hit rate 1.4% among 300,000; inhibition, % (no concentration beside the values);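 active = mean inhibition across valid replicates above about 55%, limit read from the data; inconclusive = mean below that limit but half or more replicates reach it; inactive = mean below it, under half of replicates reach it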;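 note: signal also drops with host cell toxicity which is not excluded here; 0% = plate median of DMSO wells and 100% = zero luminescence signal; higher percent means less beta-gal luminescence so fewer parasites; stock transfer was 50 nL into about 50 µL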
# AF4-AF9 inh: inhibitors of AF4 peptide binding to AF9, primary screen, biochemical, AlphaScreen, biotin-AF4 peptide, FLAG-AF9, single point. Protein AF-9 (Homo sapiens), P42568. inhibition, % at 10 µM. hit rate 0.47% among 350,000;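 active = every replicate reaching a set inhibition limit, whatever the replicate mean, cut at about 25% in these data; inconclusive = mean inhibition reaches that limit but some replicates miss it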;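 note: 0% = plate neutral control median and 100% = total signal loss; the record names both 10 and 1 µM as test concentration; the first replicate is given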
# Target sequence (P42568 whole entry, looked up): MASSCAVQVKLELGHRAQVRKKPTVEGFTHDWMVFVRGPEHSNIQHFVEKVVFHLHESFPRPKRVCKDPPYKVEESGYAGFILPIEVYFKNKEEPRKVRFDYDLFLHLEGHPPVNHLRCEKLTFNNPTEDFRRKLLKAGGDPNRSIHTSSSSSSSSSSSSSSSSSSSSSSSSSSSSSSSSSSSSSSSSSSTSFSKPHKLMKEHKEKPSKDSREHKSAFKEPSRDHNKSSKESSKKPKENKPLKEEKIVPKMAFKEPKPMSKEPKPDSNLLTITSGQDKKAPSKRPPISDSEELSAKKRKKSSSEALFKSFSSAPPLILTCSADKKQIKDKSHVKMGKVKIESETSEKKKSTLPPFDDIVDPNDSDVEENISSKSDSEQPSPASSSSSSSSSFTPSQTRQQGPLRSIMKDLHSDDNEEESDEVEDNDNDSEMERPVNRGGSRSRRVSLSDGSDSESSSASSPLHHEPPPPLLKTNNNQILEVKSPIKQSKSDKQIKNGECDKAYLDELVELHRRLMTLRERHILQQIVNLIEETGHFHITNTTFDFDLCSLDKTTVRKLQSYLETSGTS
# Ecoli rRNA inh: reduced GFP signal of wild-type E. coli, primary screen, bacterial rRNA inhibitor project, GFP/RFP fluorescence, OD600, single point. E. coli WT GFP vs humanized-ribosome RFP mutants, 24 h; hits give low values; DMSO median 0, no signal -100. GFP signal change (wild-type ribosome), % (concentration not given with the values). hit rate 1.6% among 350,000. AID 720706, 2013;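 active = significant combined selectivity score with lowered wild-type GFP, culture density cut under 30%, mutant RFP and density less affected; inactive = any of these conditions unmet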; note: one replicate is shown; some compounds called inactive have numbers as strong as hits
# Vif TR-FRET: inhibitors of Vif binding to APOBEC3G peptide, primary screen, biochemical, TR-FRET, GST-Vif 1-94, biotin-A3G peptide, dose response retest (AID 1117319) | Virion infectivity factor (Human immunodeficiency virus type 1 group M subtype B (isolate … | TR-FRET GST-Vif / biotin-A3G peptide binding; higher % means a stronger effect; test concentration not given here; strong numbers were not always called active | one-dose inhibition, %; IC50 in µM for titrated hits | hit rate 0.57% among 260,000;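 active = above the screen mean plus three standard deviations and confirmed in dose response; inconclusive = results disagree or hit not tested in dose response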;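 note: Vif residues 1-94 fused to GST binding biotinylated APOBEC3G peptide 110-148; 0% = full assay without inhibitor and 100% = GST in place of GST-Vif; retest series ran down from 100 µM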
# Ecoli rRNA inh OD600: second read-out of Ecoli rRNA inh, no call of its own (marks repeat the call); OD600 change, %; measured here: OD600 growth;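 optical density of the mix in the first replicate; 0 = DMSO median and -100 = no signal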
# Ecoli rRNA inh RFP: further read-out of Ecoli rRNA inh, marked with its call; RFP signal change, %; measured here: RFP humanized mutant strains;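 first replicate; 0 = DMSO median and -100 = no signal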
# The depositor's hits bear a star; u = inconclusive; x = no result given; & = joins results of further samples.
SMILES,RanGTP-Impb inh,Calb FLC,A1 inh,Beta cell apopt,T cruzi inh,AF4-AF9 inh,Ecoli rRNA inh,Ecoli rRNA inh OD600,Ecoli rRNA inh RFP,Vif TR-FRET
CC(C)(C)C(=O)C1=C(O)C(=O)N(c2ccccc2)C1c1ccccc1 (stereo unspecified),1.3,18,-0.6,0,-12,0.3,-9,-6,-2.8,x
CN(CC(=O)Nc1ccncc1)S(=O)(=O)c1ccc(Br)cc1,u,2,0.7,-8,-9,x,x,x,x,3%
O=C(Nc1ccccc1N1CCOCC1)c1ccccc1NS(=O)(=O)c1ccc(F)cc1,6.4,24,0.2,11,10,x,x,x,x,-10%
O=C(CCn1cccn1)Nc1ccc(-c2ccno2)cc1,u,25,-1.3,-1,-27,-9.1,2,1,-2.9,x
NC(=O)C1CCN(Cc2nc3ccccc3c(=O)[nH]2)CC1,-4.7,12,0.5,1,-9,x,x,x,x,-1%
CCOC(=O)c1cnc2c(-c3cccc(Br)c3)cnn2c1C,0.3,12,-1.7,-10,-16,x,x,x,x,x
Cc1cccc(N2C(=O)C3CCCN3C2=S)c1 (stereo unspecified),6.2,-30,-0.2,-10,0,0.1,0,8,-5.4,-2%
O=c1[nH]n2c(C(F)(F)F)cc(C3CC3)nc2c1N=Nc1ccccc1,-1.8,88*,0.0,-3,6,-1.4,8,8,-1.8,4%
CN(C)CCNC(=S)Nc1ccccc1C(C)(C)C,5.1,-13,-0.3,1,-4,-2.6,17,23,3.3,10%
CC12C(=O)N(c3ccccc3C(=O)O)C(=O)C1C1C=CC2C1 (stereo unspecified),-0.9,6,0.2,-5,-2,x,x,x,x,66%
CCOC(=O)C(C)Oc1ccccc1C1NC(=O)NC(C)=C1C(=O)Nc1ccc(C)c(C)c1 (stereo unspecified),-3.0,0,0.1,-6,9,x,x,x,x,1%
COc1ccc(OCc2nn[nH]n2)cc1,3.4,7,-0.2,-3,-9,0.3,3,5,-0.8,x
CC(Cn1nnc2ccccc21)C(=O)O (stereo unspecified),3.3,-2,0.7,-1,-7,-6.0,7,2,-2.2,x
C=CCc1cccc(/C=N/c2ncn[nH]2)c1O,-8.6,u,0.4,-3,-9,x,x,x,x,0%
N#CCCN(C(=S)NC(=O)c1ccco1)c1ccccc1F,-1.6,-5,0.3,-3,-10,-2.7,16,19,3.2,4%
COc1ccc(-n2c(=S)[nH]c3cc(C(=O)Nc4ccccc4OC)ccc3c2=O)c(OC)c1,1.1,0,0.7,x,-10,4.1,-4,-1,2.7,x
COc1ccc(S(=O)(=O)Nc2ccc3c(c2)C(=O)N([C@H](C)CO)C[C@H](C)[C@@H](CN(C)S(=O)(=O)c2ccccc2)O3)cc1,x,x,-0.8,-4,x,-4.1&-1.1,6&-3,3&-5,-9.9&-0.4,x
Cc1cccc(N=c2oc3cc(O)ccc3cc2C(N)=O)c1,-2.3,u,-1.4,-1,10,x,x,x,x,-6%
CCc1cc(=O)[nH]c(SCCc2ccccc2)n1,-2.9,-1,0.9,-3,-5,x,x,x,x,11%
Cc1cccc(/C=N/n2c(C)nnc2C)c1,0.9,-24,-0.7,3,-27,x,x,x,x,13%

# Nine structures from above, sorted by SMILES length, falling.
SMILES,RanGTP-Impb inh,Calb FLC,A1 inh,Beta cell apopt,T cruzi inh,AF4-AF9 inh,Ecoli rRNA inh,Ecoli rRNA inh OD600,Ecoli rRNA inh RFP,Vif TR-FRET
CCOC(=O)C(C)Oc1ccccc1C1NC(=O)NC(C)=C1C(=O)Nc1ccc(C)c(C)c1 (stereo unspecified),-3.0,0,0.1,-6,9,x,x,x,x,1%
O=C(Nc1ccccc1N1CCOCC1)c1ccccc1NS(=O)(=O)c1ccc(F)cc1,6.4,24,0.2,11,10,x,x,x,x,-10%
CC(C)(C)C(=O)C1=C(O)C(=O)N(c2ccccc2)C1c1ccccc1 (stereo unspecified),1.3,18,-0.6,0,-12,0.3,-9,-6,-2.8,x
CC12C(=O)N(c3ccccc3C(=O)O)C(=O)C1C1C=CC2C1 (stereo unspecified),-0.9,6,0.2,-5,-2,x,x,x,x,66%
CCOC(=O)c1cnc2c(-c3cccc(Br)c3)cnn2c1C,0.3,12,-1.7,-10,-16,x,x,x,x,x
Cc1cccc(N=c2oc3cc(O)ccc3cc2C(N)=O)c1,-2.3,u,-1.4,-1,10,x,x,x,x,-6%
CCc1cc(=O)[nH]c(SCCc2ccccc2)n1,-2.9,-1,0.9,-3,-5,x,x,x,x,11%
Cc1cccc(/C=N/n2c(C)nnc2C)c1,0.9,-24,-0.7,3,-27,x,x,x,x,13%
COc1ccc(OCc2nn[nH]n2)cc1,3.4,7,-0.2,-3,-9,0.3,3,5,-0.8,x

# The list goes on:
SMILES,RanGTP-Impb inh,Calb FLC,A1 inh,Beta cell apopt,T cruzi inh,AF4-AF9 inh,Ecoli rRNA inh,Ecoli rRNA inh OD600,Ecoli rRNA inh RFP,Vif TR-FRET
CNC(=O)C1(C)C=CCN1C(=O)c1ccccc1 (stereo unspecified),0.6,-12,-0.3,-9,-11,-1.5,10,13,-0.9,-1%
O=Cc1ccc(Sc2nnc(-c3ccccc3)o2)c([N+](=O)[O-])c1,1.4,30,-0.8,-8,17,x,x,x,x,2%
S=c1nc(-c2cccc(Cl)c2)[nH][nH]1,-0.6,-25,0.6,-6,6,-6.7,-3,-12,-1.4,2%
Nc1nc(-c2ccco2)nn1C(=O)c1cccnc1,0.8,-8,-0.7,-4,-7,x,x,x,x,18%
COc1ccccc1CNC(=O)Cn1c(=O)c2cccn2c2cccnc21,4.0,-11,0.1,8,-17,0.5,4,17,0.1,-12%
CC(C)CCNC(=O)c1ccc2c(SCC(=O)O)c3c(nc2c1)CCCC3,4.1,27,2.1,-2,-4,-0.3,1,1,7.6,26%
CC(C)(CC(=O)O)CC(=O)Nc1ccccc1Oc1ccccc1,0.2,0,-0.8,-3,-13,3.6,-2,-1,3.4,-1%
CC(=O)N1N=C(c2ccco2)CC1c1ccc(Cl)o1 (stereo unspecified),-0.3,-5,1.8,-2,-3,-1.9,2,4,0.1,-2%
O=C(CSc1nc2ccc(Nc3nc(N4CCOCC4)nc(N4CCOCC4)n3)cc2s1)NCc1ccco1,2.9,10,0.5,-7,54,-0.1,7,14,10,7%
O=C(Cn1nnc(-c2ccc(N3CCOCC3)cc2)n1)OC1CCCCC1,-2.3,-18,-0.4,-9,-13,x,x,x,x,-1%
O=C1c2ccccc2S(=O)(=O)c2cc(C(=O)N3CCCC3)ccc21,-3.5,0,0.0,-5,0,4.0,-6,-3,-6.8,x
Cc1cccc(C(=O)OCCN2CCOCC2)c1,4.0,3,0.2,-8,-12,-2.3,11,5,-0.2,x
Cc1[nH]c2ccccc2c1Cc1n[nH]c(=S)o1,5.8,-1,-0.2,x,3,9.7,-2,-4,-6.8,11%
Cc1cccc(N2CCN(c3cccc(C)c3)C2c2cccnc2)c1,-0.6,u,-0.5,x,66*,x,x,x,x,4%
Cc1ccc(C(=O)OCC(=O)NC2CCCCC2)s1,4.0,-6,0.2,-2,10,0.0,5,6,-4.6,-3%
Cc1ccccc1NC(=O)Cc1nnc(SCC(=O)c2ccc(Br)cc2)n1C,0.0,-3,0.0,-4,-4,x,x,x,x,20%
Cc1cc(C)c(S(=O)(=O)Nc2ccccn2)c(C)c1,-4.4,3,0.5,-10,-11,4.2,16,11,1.2,x
CCSC1=NN2CCS(=O)(=O)N=C2S1,-3.4,11,1.3,x,5,-2.2,15,19,-10,21%
N#C/C(C(=O)Oc1ccccc1)=C1\C=Cc2ccccc2N1,54*,5,0.4,-11,13,x,x,x,x,-34%
NNS(=O)(=O)c1ccc(Cc2ncc(C(F)(F)F)cc2Cl)s1,2.4,1,-0.8,4,0,x,x,x,x,19%
COc1ccc(Oc2c(Cl)cnn(-c3ccccc3)c2=O)cc1,-2.4,-6,0.4,-16,-11,x,x,x,x,u
Cc1ccc(C)c(NC(=O)CN(C)C(=O)c2cccc(S(=O)(=O)N3CCN(Cc4ccccc4)CC3)c2)c1,3.8,-8,u,36,5,2.0,-11,-30,-2.0,x
O=C(COC(=O)Cc1n[nH]c(=O)c2ccccc12)Nc1ccc(Cl)cc1F,6.7,-12,0.9,2,5,-15,2,3,1.9,7%
COc1ccc(S(=O)(=O)NCc2ccc(C(=O)N(C)Cc3ccco3)cc2)cc1,7.2,-2,1.6,-8,31,x,x,x,x,18%
CSc1cccc(NC(=S)N(CCCN2CCCC2)Cc2cccs2)c1,-0.2,-31,1.6,-10,-2,8.9,-2,-1,7.8,-12%
COc1cc(/C=C(\NC(C)=O)C(=O)Nc2ccc(NC(C)=O)cc2)ccc1OC(C)=O,-0.5,-1,-0.7,-5,-8,x,x,x,x,u
CCc1c(C)nc2cc(-c3cccc(Br)c3)[nH]n2c1=O,3.5,20,-4.6,x,30,-0.4,11,13,2.1,-11%
COCCN1CCN(C(=O)c2cc(COc3cncc(Cl)c3)on2)CC1,-0.1,6,-0.5,-7,-8,-18,4,17,-0.7,0%
O=C(Cc1ccccc1[N+](=O)[O-])NNC(=O)c1cccs1,x,x,-0.5,2,x,-1.2,3,12,-0.5,x
O=C(O)CCC(=O)NC1CCCCC1,-2.7,26,-0.8,-7,-10,x,x,x,x,1%
CCOc1cc(NC(=S)NCC2CCCO2)c(OCC)cc1NC(=O)c1cccc(F)c1 (stereo unspecified),5.4,24,-0.7,2,7,6.4,1,10,0.2,-4%
NS(=O)(=O)c1cccc(NC(=O)COC(=O)CC2CC3CCC2C3)c1 (stereo unspecified),-3.4,-2,0.5,-1,1,-4.2,-10,-18,-3.6,11%

# Given as tab-separated lines: entries from further up
SMILES	RanGTP-Impb inh	Calb FLC	A1 inh	Beta cell apopt	T cruzi inh	AF4-AF9 inh	Ecoli rRNA inh	Ecoli rRNA inh OD600	Ecoli rRNA inh RFP	Vif TR-FRET
COc1cc(/C=C(\NC(C)=O)C(=O)Nc2ccc(NC(C)=O)cc2)ccc1OC(C)=O	-0.5	-1	-0.7	-5	-8	x	x	x	x	u
Cc1ccccc1NC(=O)Cc1nnc(SCC(=O)c2ccc(Br)cc2)n1C	0.0	-3	0.0	-4	-4	x	x	x	x	20%

# A portion of the library (hit frequency here may not be typical).
